# Screening results deposited in PubChem by several laboratories.
# Fam108B inh: Fam108B inhibition, counter-screen for RBBP9 inhibitors; 300,000 tested, 0.33% active; inhibition, % at 9.51 µM; AID 1947; recombinant Fam108B, FP-Rh probe fluorescence polarization;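 active means inhibition above the screen mean inhibition plus 3 SD, computed separately per campaign, cut at about 18% in these data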;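 further: inhibitors lower polarization as less probe binds the enzyme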
# AHR activator: human AHR activation | activation, % at 5 µM | AID 2796 | P35869 | AHR-responsive luciferase reporter cells, luminescence | 320,000 tested, 2.5% active; in the data active means activation above about 47%;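 further: 0% = vehicle wells and 100% = reference agonist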
# MCL1-BIM inh: inhibitors of human MCL1 binding to BIM-BH3 peptide; Q07820; GST-MCL1 / FITC-Bim-BH3 fluorescence polarization; inhibition, % at 10.9 µM; 320,000 tested, 0.68% active;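 active means inhibition above the mean inhibition of all tested compounds plus 3 SD, set per campaign, cut at about 40% in these data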;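 further: 0% = DMSO wells and 100% = unlabeled Bim-BH3 peptide control; higher means more loss of mP so more displacement of Bim peptide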
# PAFAH1B2 inh: blocks human PAF acetylhydrolase 1b catalytic subunit 2; P68402; recombinant PAFAH1B2, FP-rhodamine activity probe, fluorescence polarization; inhibition, % at 3.39 µM; 340,000 tested, 1.2% active;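 active means inhibition above the mean of all tested compounds plus 3 SD, cut at about 24% in these data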;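 further: 0% = enzyme with DMSO and 100% = wells lacking PAFAH1B2; many of its hits are not listed in these tables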
# Target sequence (P68402 whole entry, looked up): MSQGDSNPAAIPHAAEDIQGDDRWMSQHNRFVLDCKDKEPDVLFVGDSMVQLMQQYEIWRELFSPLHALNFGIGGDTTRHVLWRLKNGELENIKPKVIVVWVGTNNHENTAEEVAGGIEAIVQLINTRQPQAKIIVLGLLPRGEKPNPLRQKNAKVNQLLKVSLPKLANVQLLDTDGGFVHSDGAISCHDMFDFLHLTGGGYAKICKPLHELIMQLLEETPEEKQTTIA
# pPAFAH inh: inhibitors of human plasma PAF acetylhydrolase (pPAFAH) | recombinant pPAFAH, FP-rhodamine probe fluorescence polarization | inhibition, % at 3.39 µM | 330,000 tested, 1.5% active | AID 463082;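 active means inhibition above the mean inhibition across the screen plus 3 SD, cut at about 25% in these data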;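 further: inhibitors block binding of the rhodamine activity-based probe so polarization drops; 0% = enzyme with DMSO and 100% = wells lacking pPAFAH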
# BCLXL inh: blocks human Bcl-xL binding to Bim BH3 peptide | GST-Bcl-xL / FITC-Bim BH3 peptide fluorescence polarization | 320,000 tested, 0.7% active | AID 2129 | Q07817 | inhibition, % at 10.9 µM;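 active means inhibition above the mean of all tested compounds plus 3 SD, cutoff set per campaign, cut at about 30% in these data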;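 further: 0% = DMSO wells and 100% = unlabeled Bim-BH3 peptide competitor; inhibitors lower millipolarization by displacing the labeled peptide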
# Target sequence (Q07817 whole entry, looked up): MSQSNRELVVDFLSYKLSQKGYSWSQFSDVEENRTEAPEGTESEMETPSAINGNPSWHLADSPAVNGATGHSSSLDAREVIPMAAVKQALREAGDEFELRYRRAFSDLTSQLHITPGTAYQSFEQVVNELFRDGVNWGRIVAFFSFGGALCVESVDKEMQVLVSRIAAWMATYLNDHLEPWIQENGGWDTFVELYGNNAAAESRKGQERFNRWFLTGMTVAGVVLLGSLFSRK
# GLD-1 TGE inh: GLD-1-TGE RNA interaction inhibition (C. elegans); purified GLD-1 + fluorescein TGE RNA, fluorescence polarization; inhibition, % at 5.96 µM; Q17339; 320,000 tested, 0.44% active; AID 2280;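 active means percent inhibition above a per-plate cutoff, the plate mean of test compounds plus 3 SD, cut at about 30% in these data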;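 further: 0% = DMSO wells with GLD-1 and probe and 100% = wells lacking GLD-1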
# MEX-5 binding: C. elegans MEX-5 TCR-2 RNA binding activity. 300,000 tested, 0.38% active. Q9XUB2. MEX-5/FITC-TCR2 RNA binding, fluorescence polarization; active compounds read low. activity score (negative = inhibition of binding), % at 10 µM;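 active means inhibition past about -25% in most replicates, and total fluorescence under double the plate's negative control median, limit read from the data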;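 further: 0% = DMSO and -100% = 5 µM competing unlabeled TCR2 RNA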
# Active calls of the source: *; nt = not tested or not shown.
# Value order – Fam108B inh	AHR activator	MCL1-BIM inh	PAFAH1B2 inh	pPAFAH inh	BCLXL inh	GLD-1 TGE inh	MEX-5 binding
(1) CN1Cc2sc(NC(=S)NC(=O)c3ccccc3)c(C#N)c2CC1(C)C
→ 4	-3	-92	nt	16	-40	-126	-0.4
(2) CCN(CC)c1ccc(S(=O)(=O)N2CCOCC2)cc1NC(=O)COC(=O)c1cccnc1SC
→ 2	0	-3	0	5	4	-2	1.7
(3) COc1cccc(OCC(=O)Nc2ccccc2C(=O)Nc2ccc(C(=O)O)cc2)c1
→ -3	0	-2	-1	-10	0	-4	1.8
(4) Cc1nnc2ccc(N3CCOCC3)nn12
→ -3	0	-3	9	4	1	7	0.3
(5) CC(=O)N1CCc2cc(C(=O)CN3CCC(C)CC3)ccc21
→ 1	-2	0	8	1	1	-1	-1.1
(6) COc1ccc(C(=O)NNC(=S)NC(=O)c2ccc(Br)o2)cc1OC
→ 4	-1	7	1	5	5	3	1.2
(7) CCCCNC(=O)c1onc(CCl)c1C(=O)OC
→ 0	3	3	5	1	3	-8	4.6
(8) Cc1ccc(C)c(S(=O)(=O)N2CCC3(CC2)OCCN3S(=O)(=O)c2cccs2)c1
→ -4	0	0	4	2	3	-3	1.6
(9) COc1ccc(Cl)cc1NC(=O)CN(C)CC(=O)Nc1c(C)n(C)n(-c2ccccc2)c1=O
→ nt	0	1	-1	4	5	0	nt
(10) CC(NC(=O)COC(=O)CC(c1ccccc1)c1ccccc1)c1ccccc1 (configuration not stated)
→ -5	-1	-6	9	6	1	1	1.8

# Continued, overlapping the part above by two compounds.
# Value order – Fam108B inh	AHR activator	MCL1-BIM inh	PAFAH1B2 inh	pPAFAH inh	BCLXL inh	GLD-1 TGE inh	MEX-5 binding
(9) COc1ccc(Cl)cc1NC(=O)CN(C)CC(=O)Nc1c(C)n(C)n(-c2ccccc2)c1=O
→ nt	0	1	-1	4	5	0	nt
(10) CC(NC(=O)COC(=O)CC(c1ccccc1)c1ccccc1)c1ccccc1 (configuration not stated)
→ -5	-1	-6	9	6	1	1	1.8
(11) C[C@H](NC(=O)c1[nH]cnc1C(=O)Nc1ccc(CNC(=O)OC(C)(C)C)cc1)C(=O)OC(C)(C)C
→ -9	6	10	-7	1	6	-3	-3.1
(12) O=C(CSc1ncnc2c1cnn2-c1ccc(F)cc1)NCc1ccc2c(c1)OCO2
→ 1	-2	-2	-3	-5	1	1	-2.1
(13) O=C(c1cccs1)N1CCCC(c2nc3c(nnn3Cc3c(Cl)cccc3Cl)c(=O)[nH]2)C1 (configuration not stated)
→ -3	0	7	-3	6	5	10	3.1
(14) CCOC(=O)Cc1csc(NC(=O)c2sc3nc4ccc(CC)cc4cc3c2N)n1
→ 1	3	11	0	34*	21	13	-3.7
(15) O=[N+]([O-])c1ccc(S(=O)(=O)Nc2ccc(-c3ccc(N4CCCC4)nn3)cc2)cc1
→ 1	-1	-1	4	12	8	-1	-1.4
(16) O=c1[nH]c2ccccc2nc1-c1c[nH]c2ccccc12
→ 7	41	12	1	9	7	4	-2.8
(17) O=C(c1cc(C(=O)c2ccco2)cc(C(=O)c2ccco2)c1)c1ccco1
→ 2	2	5	-2	7	6	0	-2.3
(18) COc1ccccc1-n1c(=O)[nH]c2c(C(N)=O)nc(-c3cccnc3)nc21
→ 2	7	2	2	8	3	7	1.2
(19) CCC(=O)N1C(C(=O)N2CCCC2)CSC1c1ccc(OC)cc1 (configuration not stated)
→ -4	0	10	7	3	3	5	0.0
(20) Cc1cc(F)ccc1S(=O)(=O)N1CCC2(CC1)OCCN2S(=O)(=O)c1cccs1
→ -2	2	-2	2	3	0	3	1.3
(21) CN(C)C(=O)c1c2c(nc3ccccc13)CCCC2
→ -2	5	-3	3	-1	1	1	-0.5
(22) Nc1ccc(C(=O)OCCCc2nc3cc4ccccc4cc3[nH]2)cc1
→ 5	21	1	5	21	5	-3	-2.3
(23) COc1ccc(-c2ccc(NS(=O)(=O)c3ccc([N+](=O)[O-])cc3)cc2)nn1
→ 1	1	6	1	6	11	1	-2.2
(24) Cc1onc(-c2ccccc2)c1C(=O)NC(=S)Nc1sc2c(c1C#N)CCCC2
→ -6	15	12	9	1	15	1	-2.3
(25) Cn1cc(Br)c(-c2cccc(NC(=O)CCCC(=O)O)c2)n1
→ 3	-1	2	-8	6	3	-2	-5.6
(26) O=c1ccc2ccc(Oc3ccc(Cl)cc3[N+](=O)[O-])cc2o1
→ -1	12	6	3	9	4	4	2.5
(27) CC(C)C[C@H](NC(=O)c1nc[nH]c1C(=O)NC1CCNCC1)C(=O)OCc1ccccc1
→ 1	1	6	2	3	4	3	18
(28) Cc1cccc(CNS(=O)(=O)c2ccc(-c3cnc(C4CC4)o3)cc2)c1
→ 2	3	1	3	7	6	2	-0.6
(29) O=c1c([N+](=O)[O-])c(O)c2ccccc2n1Cc1ccccc1
→ 0	0	3	2	1	3	3	-0.9

# From compound 15 to 27, copied from above:
# Value order – Fam108B inh	AHR activator	MCL1-BIM inh	PAFAH1B2 inh	pPAFAH inh	BCLXL inh	GLD-1 TGE inh	MEX-5 binding
(15) O=[N+]([O-])c1ccc(S(=O)(=O)Nc2ccc(-c3ccc(N4CCCC4)nn3)cc2)cc1
→ 1	-1	-1	4	12	8	-1	-1.4
(16) O=c1[nH]c2ccccc2nc1-c1c[nH]c2ccccc12
→ 7	41	12	1	9	7	4	-2.8
(17) O=C(c1cc(C(=O)c2ccco2)cc(C(=O)c2ccco2)c1)c1ccco1
→ 2	2	5	-2	7	6	0	-2.3
(18) COc1ccccc1-n1c(=O)[nH]c2c(C(N)=O)nc(-c3cccnc3)nc21
→ 2	7	2	2	8	3	7	1.2
(19) CCC(=O)N1C(C(=O)N2CCCC2)CSC1c1ccc(OC)cc1 (configuration not stated)
→ -4	0	10	7	3	3	5	0.0
(20) Cc1cc(F)ccc1S(=O)(=O)N1CCC2(CC1)OCCN2S(=O)(=O)c1cccs1
→ -2	2	-2	2	3	0	3	1.3
(21) CN(C)C(=O)c1c2c(nc3ccccc13)CCCC2
→ -2	5	-3	3	-1	1	1	-0.5
(22) Nc1ccc(C(=O)OCCCc2nc3cc4ccccc4cc3[nH]2)cc1
→ 5	21	1	5	21	5	-3	-2.3
(23) COc1ccc(-c2ccc(NS(=O)(=O)c3ccc([N+](=O)[O-])cc3)cc2)nn1
→ 1	1	6	1	6	11	1	-2.2
(24) Cc1onc(-c2ccccc2)c1C(=O)NC(=S)Nc1sc2c(c1C#N)CCCC2
→ -6	15	12	9	1	15	1	-2.3
(25) Cn1cc(Br)c(-c2cccc(NC(=O)CCCC(=O)O)c2)n1
→ 3	-1	2	-8	6	3	-2	-5.6
(26) O=c1ccc2ccc(Oc3ccc(Cl)cc3[N+](=O)[O-])cc2o1
→ -1	12	6	3	9	4	4	2.5
(27) CC(C)C[C@H](NC(=O)c1nc[nH]c1C(=O)NC1CCNCC1)C(=O)OCc1ccccc1
→ 1	1	6	2	3	4	3	18

# Only part of the results is shown; the hit share may differ from the screen's.
